Screening data from PubChem BioAssay.
Marburg entry inh: Marburg virus entry inhibition. actives 1.8% (n = 300,000). Marburg virus pseudotyped entry inhibition, cell reporter; control for the full effect not named in the record; about a third of the inactives were read at about 46 µM. Potency, µM (doses to about 37.8 µM), for inactives: top-dose activity change, negative = inhibition, actives largely listed as inhibitors; active = well fitted inhibition curve with a large enough effect; inconclusive = small, poorly fitted or top-dose-only effect, or effect the other way; inactive = flat fitted curve, though single readings scatter; tested in HEK293 cells; about a fifth of its hits are not listed in these tables; note: % is set by controls: 0 for no effect and ±100 for the full control effect; luciferase read-out
RE007 growth inh: less growth of the S. pombe RE007 Vpr strain. actives 0.21% (n = 360,000). Potency, µM (top dose mostly 92.2 µM), for the others: at the top dose activity change, negative = less growth. S. pombe RE007 Vpr strain, BacTiter-Glo ATP luminescence, 24 h; control for the full effect not named in the record; active = well fitted falling curve with a large enough effect; inconclusive = small, poorly fitted or top-dose-only effect; inactive = no such curve, though single readings can be large or run the other way;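 note: % is set by controls: 0 for no effect and ±100 for the full control effect; nearly all actives have a fitted effect of over 50% in size; the assay follows cell death caused by Vpr and the record does not say whether a fall means rescue or toxicity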
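Fission yeast strain RE007, carrying one chromosomally integrated HIV-1 vpr copy, was seeded at OD 0.01 in PMG+AL medium with 23 nL pinned compound. After 24 h at 30 °C and 99% humidity, viability was read by BacTiter-Glo luminescence.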
Lassa entry inh: inhibitors of Lassa virus binding or cell entry; AID 540256; Potency, µM (highest dose often 37.9 µM), without a hit: top-dose activity change, negative = inhibition, most hits filed as inhibitors; Lassa virus pseudotype entry inhibition, cell reporter; control for the full effect not named in the record; actives 1.2% (n = 300,000); active means well fitted inhibition curve with a large enough effect; inconclusive means small, poorly fitted or top-dose-only effect, or effect the other way; inactive means flat fitted curve, though single readings scatter; tested in HEK293 cells; note: % is set by controls: 0 for no effect and ±100 for the full control effect; nearly all actives have a fitted effect of over 50% in size; luciferase read-out
Cruzain Triton: blocks cruzain activity in presence of Triton detergent; P25779; actives 0.43% (n = 200,000); purified cruzain, Z-FR-AMC fluorescence, 0.01% Triton; Potency, µM, without a hit: max response, negative = inhibition, actives largely listed as inhibitors;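 note: plate controls were neutral wells for no effect and buffer without enzyme for full effect; nearly all actives have a fitted effect of over 40% in size; top concentration of the series not given in the record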
Target sequence (P25779 123-467 limits assumed): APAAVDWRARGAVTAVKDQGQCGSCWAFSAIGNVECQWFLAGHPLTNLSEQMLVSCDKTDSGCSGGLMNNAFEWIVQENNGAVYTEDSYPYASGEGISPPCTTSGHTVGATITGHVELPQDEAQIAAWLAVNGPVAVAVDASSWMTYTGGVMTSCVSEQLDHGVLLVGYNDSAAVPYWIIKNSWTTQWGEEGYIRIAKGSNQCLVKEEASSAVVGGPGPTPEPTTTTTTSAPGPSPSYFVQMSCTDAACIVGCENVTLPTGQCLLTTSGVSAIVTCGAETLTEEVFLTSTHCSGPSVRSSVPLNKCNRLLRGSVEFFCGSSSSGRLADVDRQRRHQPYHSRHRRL
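Cruzain (1.5 nM) preincubated 15 min at RT with compound in 100 mM sodium acetate pH 5.5, 5 mM DTT, 0.01% Triton X-100. Reaction started with 2 uM Z-FR-AMC; AMC fluorescence (ex 360/em 450 nm) change over 60 s gave rate.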
NS1 function inh: influenza NS1 inhibition. actives 0.4% (n = 270,000). S. cerevisiae slowed by influenza A NS1, growth recovery by OD600. Potency, µM (titrated, usually from 46.1 µM), for the others: top-dose activity, positive = more growth; active means well fitted rising curve with a large enough effect; inconclusive means small, poorly fitted or top-dose-only effect; inactive means no such curve, though single readings can be large or run the other way; note: nearly all actives have a fitted effect of over 50% in size
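A cell-based growth assay was used: compounds that relieve NS1-induced slow growth of budding yeast raise OD600. Assay medium was yeast nitrogen base with ammonium sulphate and -URA supplement, pH 6.0, with 2% galactose.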
Cruzain inh noDet: cruzain (T. cruzi) inhibition without detergent | Potency, µM, for the others: max response, negative = inhibition, actives largely listed as inhibitors | purified cruzain, Z-FR-AMC fluorescence, no detergent | AID 1476 | actives 2.3% (n = 200,000);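 note: plate controls were enzyme without inhibitor for no effect and buffer without enzyme for full effect; nearly all actives have a fitted effect of over 40% in size; top concentration of the series not given in the record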
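Purified cruzain at 1.5 nM, pre-incubated 15 min with compound at room temperature in 100 mM sodium acetate pH 5.5, 5 mM DTT, 0.00005% Triton X-100. Reaction started with 2 uM Z-FR-AMC; AMC fluorescence increase over 60 s gives rate.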
SARS PLpro yeast: inhibitors of SARS-CoV papain-like protease in yeast. actives 0.19% (n = 330,000). S. cerevisiae expressing SARS-CoV PLpro, growth rescue; control for the full effect not named in the record. Potency, µM (top dose mostly 32.9 µM), inactives show at the top dose activity, positive = growth rescue. AID 485353; active means well fitted rising curve with a large enough effect; inconclusive means small, poorly fitted or top-dose-only effect; inactive means no such curve, though single readings can be large or run the other way; note: 0% is about no effect; nearly all actives have a fitted effect of over 55% in size; growth read by luminescence after 48 h
StopGo reporter: lowers the luciferase signal of an FMDV 2A StopGo reporter. AID 1159524. actives 1.2% (n = 410,000). Potency, µM (highest dose often 57.9 µM), for the others: at the highest dose signal change, negative = less light. human cells with a luciferase reporter of 2A StopGo recoding; control for the full effect not named in the record; active = well fitted falling curve with a large enough effect; inconclusive = small, poorly fitted or top-dose-only effect; inactive = no such curve, though single readings can be large or run the other way; tested in HEK293T cells; note: % is set by controls: 0 for no effect and ±100 for the full control effect; nearly all actives have a fitted effect of over 45% in size; luciferase light after 4 h
Active calls of the source: *; ? = inconclusive; . = no result given; & = joins results of further samples; [ ] = another dose, or the depositor's remark. Unless noted, calls come from the whole dose curve; as a rule, active = well fitted curve in the direction sought with a large enough effect; inconclusive = small, poorly fitted or top-dose-only effect, or another doubt; inactive = no such curve, though single readings can be large; an effect the other way counts as inactive or inconclusive. Potency is the fitted concentration of half-maximal effect.

Value order: Marburg entry inh, RE007 growth inh, Lassa entry inh, Cruzain Triton, NS1 function inh, Cruzain inh noDet, SARS PLpro yeast, StopGo reporter
- COn1c(SCc2cccnc2)nc2ccccc2c1=O
 : -22%, -4%, 5%, -1.6%, -15%, 1%, -6%, -10%
- CS(=O)(=O)c1cccc(S(=O)(=O)N2CCN(c3ccccn3)CC2)c1
 : ., 3%, ., ., 9%, ., 2%, -19%
- CC(=O)[C@@]1(O)C(C)CC2C3C=C(C)C4=Cc5c(cnn5-c5ccccc5)C[C@]4(C)C3C(O)C[C@@]21C (stereo not given in full)
 : 7.9µM*, -1%, ?, ., ?, ., -1%, -18%
- O=C1CC(c2ccc(F)cc2)Sc2ccccc2N1 (stereo not given)
 : 13%&13%, -6%, -29%, -2.1%, -4%, -8%, -14%, 0%
- Fc1cccc(/C=N\N=C/c2cccc(F)c2)c1
 : ?, ., ., -1.7%, ., -9%, ., 49%[activator]
- Cc1ccsc1/C=N/n1c(-c2cc(-c3ccccc3)n[nH]2)n[nH]c1=S
 : -11%[46.1 µM], -5%, ?, ., 5%, ., 0%, -26%
- CCOC(=O)c1cnc2ccccc2c1NCc1ccco1
 : ., -4%, ., ., -7%, ., -2%, 0%
- c1ccc(COc2ccc(Nc3ncnc4nc[nH]c34)cc2)cc1
 : ., -14%, ., -2.2%, -10%, -1%, -7%, 15%
- O=S(=O)(c1ccc(Cl)cc1)c1nc(-c2ccco2)oc1SCc1ccc(F)cc1
 : ?, ., -19%[46.1 µM], -15%, ., ?, ., ?
- O=C(CSc1nnc(-c2cccs2)o1)N1CCCCC1
 : ., -6%, ., 1.8%, -12%, 2%, 8%, 51%[activator]
- CN(C)c1ccc(CN(CC2CCCO2)C(=O)COc2ccc(Cl)cc2)cc1 (stereo not given)
 : ?, ., ?, -3.7%, ., 2%, ., 0%
- COC(=O)c1ccc(-c2ccc(OC)c([C@H]3[C@H]4C=CC[C@@H](C)[C@@H]4C(=O)N3Cc3ccccc3)c2)cc1
 : ., 0%, ., ., -4%, ., 2%, -28%
- CCCc1cc(=O)oc2c(C)c(OCC(=O)NCCCn3ccnc3)ccc12
 : 9%[46.1 µM], 0%, 14%[46.1 µM], ., -2%, ., 1%, -5%
- Cc1cc(C)n2nc(SCC(=O)Nc3cc(Cl)ccc3C)nc2n1
 : 2%[46.1 µM], ., 0%[46.1 µM], -1.6%, ., 5%, ., -8%
- O=C(COC(=O)CC1CC2CCC1C2)NCc1ccccc1 (stereo not given)
 : -11%, 3%, -5%, ., ., ., 4%, 1%
- CCN1CCN(C(c2cc(OC)ccc2OC)c2nnnn2Cc2ccccc2)CC1 (stereo not given)
 : -1%&-1%, 18%, 4%, 4.4%, -1%, 2%, 1%, -9%
- CCc1ccc(-n2nc(C)c3c(C)cc(=O)n(CC(=O)NCc4ccc(C)cc4)c32)cc1
 : ., ., 3%[46.1 µM], 0.0%, ., 9%, ., 2%
- Cc1ccc(Cl)cc1N1CCN(S(=O)(=O)N2CCCCC2)CC1
 : ?, -9%, -12%, ., -38%, ., -6%, -16%
- COc1ccccc1NC(=O)/C(=N/OCc1ccc(C#N)cc1)C(C)=O
 : ?, 3%, -9%, ., ., ., 2%, -2%
- COc1ccc(C)cc1NC(=O)c1ccc(CN2CCc3ccccc3C2)cc1
 : ?, -2%, 17%[46.1 µM], ., -7%, ., -5%, -2%
- N#C/C(=C\c1ccc(O)c(O)c1)C(=O)NCCCc1ccccc1
 : ?, -16%, 11%&-27%, -8.2%&-7.5%&-27%, -7%&-27%, -4%&-4%&-9%, 2%, -7%&8%
- CCN(CC)c1ccc(/C=C2\CCC(/C=N/NC(=O)c3ccc(=O)n(C)c3)=C2N2CCOCC2)cc1
 : 1%[46.1 µM], -15%, -19%, -2.7%, 2%, ?, 3%, -28%
- CCCOc1ccc(C(=O)NCC2OCCc3ccccc32)cc1OC (stereo not given)
 : -16%[46.1 µM], 3%, ?, ., ., ., -3%, -5%
- CSc1nsc(SC)c1C(N)=O
 : ., -10%, ., ., 1%, ., 0%, -21%
- O=S(=O)(c1cccc2cccnc12)N1CCc2ccccc21
 : -7%, 6%, 4%, -5.9%, -8%, -10%, 1%, 7%
- CCN(c1ccccc1)S(=O)(=O)c1nnc(NC(=O)c2ccccc2OC)s1
 : ., 16%, ?, -1.2%, -20%, -2%, 8%, 1%&10%
- O=C(NCCOC(=O)c1ccc(C(=O)OCCNC(=O)c2ccccc2)o1)c1ccccc1
 : 6%&6%, 35%, 3%, -2.0%, -2%, -1%, 17%, 31%[activator]
- CC(=O)Nc1ccc(/C=N/Nc2nncc3ccccc23)cc1
 : ?, -5%, 13%, ., 0%, ., 1%, 10%
- CC(C)N(CCNCC(O)COc1ccc(C(C)(C)c2ccccc2)cc1)C(C)C (stereo not given)
 : ?, 49%, ?, ., ., ., -2%, -27%
- O=C1CC2C(CCC23OCCO3)c2ccc3ccccc3c21 (stereo not given)
 : 7%, 4%, 18%, ., ., ., ., -3%
- COCCn1c(=N)c(C(=O)NC2CCCC2)cc2c(=O)n3cc(C)ccc3nc21
 : -4%[46.1 µM], ., 17%[46.1 µM], 0.4%, ., 2%, ., -24%
- O=c1c(Cl)c(N2CCC3(CC2)OCCO3)cnn1C12CC3CC(CC(C3)C1)C2
 : ., -3%, ., ., -4%, ., 0%, -4%
- O=C(NNC(=O)c1ccccc1O)c1ccc(NS(=O)(=O)c2ccc(F)cc2)cc1
 : 3%[46.1 µM], -1%, -11%, ., ., ., 0%, -7%
- COc1ccccc1N1CCN(C(=O)C(C)CS(=O)(=O)c2ccc3c(c2)NC(=O)CS3)CC1 (stereo not given)
 : ., -5%, ., ., 8%, ., ?, ?
- COc1ccc(NC(=O)CSc2nc(SC)ns2)c(OC)c1
 : ?, 3%, 5%[46.1 µM], ., -16%, ., -14%, 26%
- Cc1ccc(Cn2ncc(C)c2N)o1
 : 0%, 3%, 4%, ., 5%, ., 0%, -18%
- CCCc1cc(=O)[nH]c(SCc2csc(-c3ccccc3)n2)n1
 : ?, 1%, ?, -13%, -9%, -16%, -28%, 4%
- COc1ccc(OC)c(C2C(C(=O)c3cc4ccccc4o3)=C(O)C(=O)N2c2cc(C)on2)c1 (stereo not given)
 : 1%, -1%, ?, -9.8%, 4%, ?, -2%, ?
- COc1cc(C(=O)COC(=O)CNC(=O)C2CCCCC2)cc(OC)c1OC
 : 2%[46.1 µM], -10%, -8%, 2.2µM*, 1%, 2.5µM*, -7%, 0%
- N#CCC(=O)Nc1ccc(C(=O)OCC(=O)C23CC4CC(CC(C4)C2)C3)cc1
 : -12%, -7%, -8%, ., ., ., 3%, -7%
- COc1ccc([N+](=O)[O-])cc1C(=O)Nc1ccc(Cc2ccncc2)cc1
 : ., -12%, ., ., -1%, ., 0%, 8%
- O=C(/C=C/c1ccc(F)cc1)NNC(=O)CCN1CCN(Cc2ccccc2)CC1
 : ?, -3%, ?, ., -3%, ., 3%, -21%
- CCCCCC(O)(c1ccc(OC)cc1)C(CN1CCOCC1)c1ccccc1 (stereo not given)
 : ?, -16%, ., ., -2%, ., -1%, -29%
- O=C(Nc1ccc(-n2cnnn2)cc1)c1cn2ccccc2n1
 : 18%, -8%, -19%, ., 1%, ., 0%, 23%
- CCOC(=O)CCn1nnc(N)n1
 : 4%, 2%, 3%, 6.3%, 0%, 2%, 2%, .
- COc1cc(C(=O)NCC(c2cccnc2)N2CCc3ccccc3C2)cc(OC)c1OC (stereo not given)
 : ., ., -5%[46.1 µM], -2.5%, ., 5%, ., -5%
- COc1ccccc1NC(=O)NNC(=O)CCN1CCOCC1
 : ?, -10%, ?, ., 21%, ., 1%, 9%
- O=C(CCC(=O)NNC(=O)Nc1ccc(Cl)cc1)NCc1ccccc1
 : 7%, -5%, -4%, 1.7%, 8%, 2%, -3%, 19%
- COc1ccccc1N1CCN(C2CCCN(C(=O)COc3ccccc3Cl)C2)CC1 (stereo not given)
 : ?, 3%, ?, ., -5%, ., 1%, ?
- COc1ccccc1OCC(=O)NC1CCCc2ccccc21 (stereo not given)
 : 0%, -10%, -1%, ., -11%, ., -2%, -6%
- COC(=O)c1ccc(CSc2nnc(NC(=O)c3cc4c(s3)CCCC4)s2)cc1
 : -16%, -3%, 10%, -6.9%, -3%, 6.3µM*, 1%, 3%
- Cc1cc(C(=O)NCCCc2ccccc2)no1
 : 3%, 17%, 17%, 4.0%, ?, 1%, -4%, 18%
- CC(C)(C)c1ccc(C(=O)Nc2ccc(Cl)cc2)cc1
 : ?, 9%, ?, -3.2%, 2%, ?, -7%, 141%[activator]
- Cc1nc(C(=O)N2CCCC(Nc3ccc(C)c(C)c3)C2)cs1 (stereo not given)
 : 7%[46.1 µM], 6%, 7%[46.1 µM], ., 3%, ., 0%, -7%
- Cc1ccc(C)c(Cn2c(=O)n(Cc3ccccc3)c(=O)c3sc4ccccc4c32)c1
 : 13%[46.1 µM], ., -8%[46.1 µM], 2.5%, ., -5%, ., ?
- COc1ccc(N(Cc2cc3cc(OC)ccc3[nH]c2=O)S(C)(=O)=O)cc1
 : ?, -3%, -3%, -1.1%, -9%, 1%, 21%, -12%
- C/C=C/c1ccc(OCC(=O)OCC(=O)Nc2c(C)nn(-c3ccccc3)c2C)c(OC)c1
 : 1%, -27%, 10%, ., ., ., 0%, -23%
- O=C(NC(=S)NNC(=O)c1cc2ccccc2cc1O)c1ccco1
 : ?, -16%, -11%, ., 5%, ., 1%, 0%
- O=C(NC12CC3CC(CC(C3)C1)C2)N1CCC(O)CC1
 : 4%, -18%, 7%, 3.3%, 3%, -2%, 3%, -5%
- c1ccc2c(c1)OCCOCCOCCOCCOc1ccccc1OCCOCCOCCO2
 : ?, ., ?, -1.1%, -18%, ?, 25%, ?
